GIV-Gai inh: inhibitors of GIV GBA-motif binding to rat Galpha-i3 | P08753 | hit rate 0.42% among 210,000 | percent of control (FP), % (test concentration not listed) | AID 1224905 | Galpha-i3/FITC-GIV peptide fluorescence polarization, 90 min; stronger effect = lower value; scaled: aluminum fluoride 0%, vehicle 100%;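 active means replicate mean at 85% of control or lower, very high polarization wells dropped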;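 further: wells of about 15 µL received 100 nL stock; the first replicate is given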
Target sequence (P08753 whole entry, looked up): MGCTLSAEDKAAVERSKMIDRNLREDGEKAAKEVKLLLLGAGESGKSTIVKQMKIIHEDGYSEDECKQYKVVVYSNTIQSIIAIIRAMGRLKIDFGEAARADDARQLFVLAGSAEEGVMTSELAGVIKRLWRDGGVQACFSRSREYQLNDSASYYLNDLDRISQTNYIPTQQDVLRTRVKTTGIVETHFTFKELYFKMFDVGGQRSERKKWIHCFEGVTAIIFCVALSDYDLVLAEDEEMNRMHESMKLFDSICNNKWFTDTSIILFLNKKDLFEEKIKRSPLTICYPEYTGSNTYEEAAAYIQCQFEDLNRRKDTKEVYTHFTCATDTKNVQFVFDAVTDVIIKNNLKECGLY
HCMV UL50-53 inh: cytomegalovirus nuclear egress complex inhibition. hit rate 0.15% among 190,000. AID 1918969. inhibition, % (concentration not given with the values). HTRF UL50-UL53 interaction, normalized percent inhibition;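 active means both replicates at 50% or more, plus weaker picks with an unusually low signal ratio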;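 further: stock transfer was 100 nL into about 20 µL; 0% = negative control wells and 100% = wells with untagged competitor protein; inactives centre near -12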
Sa growth 42C: blocks Staphylococcus aureus growth | AID 720641 | S. aureus RN4220 growth, OD600, 20 h, 42 °C; stronger effect = lower value | hit rate 0.53% among 170,000 | relative growth, % (no concentration beside the values);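 active means growth at 42 °C up to 50% and 20 or more points under that at 30 °C, or under 10% at both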;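 further: 300 nL library stock went into each well; scaled to the means of positive and negative controls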
Sa growth 42C second temp: further read-out of Sa growth 42C, marked with its call; relative growth, %; measured here: growth at 30 °C;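 optical density after 20 h as mean of two plates; 100% = untreated growth and lower means inhibition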
Numbers without * were called inactive; x = not tested or not shown; & = joins results of further samples.

smiles	GIV-Gai inh	Sa growth 42C	HCMV UL50-53 inh	Sa growth 42C second temp
O=C(c1ccc(CS(=O)c2ccc(Cl)cc2)o1)N1CCCC1 (stereo not drawn)	105	110	x	96
Cc1[nH]c(=O)[nH]c(=O)c1/C=C/C(=O)O	101	110	x	85
CCCNC(=O)c1ccc(CS(=O)(=O)c2ccccc2C)o1	108	87	x	85
CCc1ccc(C2C(C#N)=C(N)OC(C)=C2C(=O)OC)cc1 (stereo not drawn)	107	110	-21	71
CCCCc1nnc(NC(=O)Cc2csc(COc3ccc(Cl)c(C)c3)n2)s1	117	x	-24	x
CCN(Cc1ccccc1)C(=O)Cn1c(=O)n(-c2ccc(C)c(C)c2)c(=O)c2c(C)c(C)sc21	102	101	13	89
CCOc1ccc(NC(=O)N(Cc2ccc(C)cc2)Cc2ccccn2)cc1	101	94	-12	93
Cc1cc(C)nc(N2CC(=O)N=C2N)n1	101	95	x	92
CCc1cccc(-n2c(=O)c3cccnc3n2CC(=O)Nc2ccc(F)c(C)c2)c1	104	100	x	91
Cc1cc(C)n(CC(=O)Nc2ccc3c(c2)OCCO3)c(=O)c1S(=O)(=O)c1ccc(Cl)cc1	106	x	-8	x
CCOC(=O)c1ccc2c(c1)N(Cc1nc(-c3cccc(C)c3)oc1C)C(=O)c1ccccc1S2(=O)=O	98	x	-9	x
O=C(NCCCN1CCN(C2CCCCC2)CC1)C1CCCN1c1nnc(N2CCCC2=O)s1 (stereo not drawn)	106	x	4	x
CC(C1CC1)n1nccc1NC(=O)c1cccc(S(C)(=O)=O)c1 (stereo not drawn)	x	101	-5	89
COc1ccc(CNC(=O)c2cnn3c(C)c(Cc4ccc(F)cc4)c(C)nc23)cc1	96	91	x	95
CC(C)Cc1nnc(C(=O)Nc2ccc(C(=O)NCCc3c[nH]c4ccccc34)cc2)s1	100	x	-7	x
CCOc1ccc(C2c3c(oc4ccc(C)cc4c3=O)C(=O)N2Cc2ccc3c(c2)OCO3)cc1OC (stereo not drawn)	99	102	13	104
COc1ccc(Nc2cc(C)c3cc(NC(=O)Cn4c(=O)oc5ccccc54)ccc3n2)cc1	120	x	5	x
COCC(C)NC(=O)c1cc2c(C)cc(C)cc2[nH]1 (stereo not drawn)	99	80	-16	81
CC1(C)CC(=O)C(N=Nc2ccc(SC(F)F)cc2)=C(O)C1	x	89	-106	81
O=C(CSCc1ccccc1)Nc1ccccc1C(=O)NCc1ccccc1	x	90	-19	91
O=S(=O)(c1ccc(-c2cc(C(F)(F)F)no2)s1)N(CCN1CCOCC1)Cc1ccco1	100	93	-30	85
Cc1ccc(NC(=O)CSC2=Nc3ccccc3C3=NC(Cc4ccccc4)C(=O)N23)cc1C (stereo not drawn)	100	110	x	96
Cc1oc(-c2cccc(Cl)c2)nc1CSCC(=O)NCc1ccccc1Cl	101	88	-24	89
NC(=S)c1ccccn1	x	68	-22	88
CN1C2CCC1CC(OC(c1ccccc1)c1ccccc1)C2 (stereo not drawn)	102	92	-12&-20&-7&-29	87
O=C(Nc1nccs1)c1ccc(-c2noc(C3CCCC3)n2)cc1	106	x	-5	x
O=C(CSc1nnc(-c2ccc(Br)cc2)n1-c1ccccc1)c1ccccc1	107	95	x	86
c1ccc(-c2cc(N3CCCC3)n3cnnc3n2)cc1	99	98	x	86
CC1(C)COC(c2cccn2Cc2ccccc2)=N1	100	93	-7	85
CC1CC(=O)N(Cc2ccccc2F)c2ccccc2N1 (stereo not drawn)	102	x	-21	x
Cc1coc2cc3oc(=O)c(CC(=O)N4CCCC4)c(C)c3cc12	106	107	-3	93
Cc1ccc(Cn2cc(S(=O)(=O)c3cccc(Cl)c3)c(=O)c3cc(F)c(N4CCOCC4)cc32)cc1	107	108	x	91
CC(C)NS(=O)(=O)Cc1ccccc1C#N	x	93	-21	90
CNc1c(NS(=O)(=O)c2cccc(C#N)c2)c(=O)oc2ccccc12	103	103	-29	95
CCc1ccc(NC(=O)c2cc(S(=O)(=O)NC3CCCC3)ccc2F)cc1	112	135	x	93
CCN(c1ccc(F)cc1)S(=O)(=O)c1cccc2nsnc12	96	96	x	88
CCN(C(=O)c1cn(CC(C)C)c(=O)c2cc(OC)c(OC)cc12)c1cc(OC)ccc1OC	106	84	3	83
O=C(O)c1ccc(-c2ccc(/C=N/N3C(=O)C4C(C3=O)C3C=CC4C34CC4)o2)cc1 (stereo not drawn)	104	111	-73	92
COc1cccc(CN2CCCCC2C(=O)O)c1 (stereo not drawn)	100	98	-18	80
CCOC(=O)N1CCN(C(=O)c2cc3cccnc3n(Cc3ccccc3)c2=O)CC1	106	95	-12	94
COc1ccc(C2Nc3ccccc3C(=O)N2Cc2ccccc2)cc1CSc1ccccn1 (stereo not drawn)	98	x	-19	x
C#CCOc1ccc2c(c1)c(C(=O)OCC)c(C)n2C	104	x	-7	x
N#CC12CC3CC(CC(C3)C1)C2	x	75	-2	97
COc1ccc(-n2nc3ccc(N)cc3n2)cc1	100	100	-30	77
CCCCN(Cc1nc2nc(C)cc(C)n2n1)S(=O)(=O)c1ccc(C)cc1	104	x	-34	x
CCCC(=O)c1cn(CC(=O)OC)c2ccccc12	x	90	1	93
O=C(COC(=O)C1CCC1)Nc1ccc(F)cc1	x	108	-33	83
CCCC(CCC)(C(=O)O)C(=O)O	107	96	-10	78
COc1cc(NC(=O)Cn2c(=O)n(Cc3ccccc3OC)c(=O)c3cccnc32)cc(OC)c1	104	92	8	109
O=C(O)CNC(=O)OCC1c2ccccc2-c2ccccc21	98	98	-23	89
O=C(NCc1ccccc1F)c1ccc2c(c1)sc1nc(-c3ccc(Cl)cc3)cn12	106	x	-1	x
Cc1nn(-c2ccccc2)c(C)c1/C=C/C(=O)OC(C)C(N)=O (stereo not drawn)	x	93	-13	92
Nc1c(S(=O)(=O)c2ccccc2)c2nc3ccccc3nc2n1Cc1ccc(S(N)(=O)=O)cc1	x	88	-4	91
COC(=O)/C(C#N)=C1/CCSC1	101	117	-17	83
CCOC(=O)c1c(C=O)oc2c(C)cc(OC(=O)C34CC5CC(CC(C5)C3)C4)c(Br)c12	98	x	-6	x
C#CCOc1ccc(C2CC(=O)Nc3c2c(C)nn3-c2ccc3nncn3n2)cc1 (stereo not drawn)	100	x	-32	x

Laid out differently: entries from further up.
Under each structure: GIV-Gai inh | Sa growth 42C | HCMV UL50-53 inh | Sa growth 42C second temp
CCOC(=O)N1CCN(C(=O)c2cc3cccnc3n(Cc3ccccc3)c2=O)CC1
  106 | 95 | -12 | 94
COc1ccc(C2Nc3ccccc3C(=O)N2Cc2ccccc2)cc1CSc1ccccn1 (stereo not drawn)
  98 | x | -19 | x
C#CCOc1ccc2c(c1)c(C(=O)OCC)c(C)n2C
  104 | x | -7 | x
N#CC12CC3CC(CC(C3)C1)C2
  x | 75 | -2 | 97
COc1ccc(-n2nc3ccc(N)cc3n2)cc1
  100 | 100 | -30 | 77
CCCCN(Cc1nc2nc(C)cc(C)n2n1)S(=O)(=O)c1ccc(C)cc1
  104 | x | -34 | x
CCCC(=O)c1cn(CC(=O)OC)c2ccccc12
  x | 90 | 1 | 93
O=C(COC(=O)C1CCC1)Nc1ccc(F)cc1
  x | 108 | -33 | 83
CCCC(CCC)(C(=O)O)C(=O)O
  107 | 96 | -10 | 78
COc1cc(NC(=O)Cn2c(=O)n(Cc3ccccc3OC)c(=O)c3cccnc32)cc(OC)c1
  104 | 92 | 8 | 109
O=C(O)CNC(=O)OCC1c2ccccc2-c2ccccc21
  98 | 98 | -23 | 89
O=C(NCc1ccccc1F)c1ccc2c(c1)sc1nc(-c3ccc(Cl)cc3)cn12
  106 | x | -1 | x
Cc1nn(-c2ccccc2)c(C)c1/C=C/C(=O)OC(C)C(N)=O (stereo not drawn)
  x | 93 | -13 | 92
Nc1c(S(=O)(=O)c2ccccc2)c2nc3ccccc3nc2n1Cc1ccc(S(N)(=O)=O)cc1
  x | 88 | -4 | 91

Continuation:
smiles	GIV-Gai inh	Sa growth 42C	HCMV UL50-53 inh	Sa growth 42C second temp
COc1cc(CNC(=O)c2ccc3nc(Cc4ccccc4)oc3c2)cc(OC)c1OC	101	107	x	97
C/C(=N\O)c1ccc(C#Cc2ccccc2)s1	95	56	-17	62
COc1ccc(NC(=O)Cn2c(-c3ccccc3)cn(-c3ccc(C)cc3)c2=O)cc1	108	105	x	80
Cc1ccc(-c2cc(N3CCC(C(=O)NC(C)C)CC3)ncn2)cc1	102	x	-40	x
Cc1ccc(CCNC(=O)C2CCN(c3nnc(C)c4c(C)n(-c5ccccc5)nc34)CC2)cc1	108	83	x	94
CCN(CC)C(=O)COc1ccc2ccccc2c1Br	x	109	-22	114
CC1CS(=O)(=O)N(c2ccc(S(=O)(=O)N3CCc4ccccc43)cc2)C1=O (stereo not drawn)	103	x	-8	x
CCCCOc1ccc(C(=O)Nc2sc3c(c2C(=O)OCC)CCCCC3)cc1	96	102	-6	90
Cc1ccc(NC(=O)c2cccc(N3CCCS3(=O)=O)c2)cc1C	103	91	x	93
COCCOC(=O)c1sc(C)c(C(=O)OC)c1N	x	92	7	89
CCOC(=O)c1ccc(O)cc1	x	91	-20	85
O=C(Nc1ccc2c(c1)OCCO2)C1Cc2ccccc2N1C(=O)OCc1ccccc1 (stereo not drawn)	104	129	14	100
CCOC(=O)c1ccc(N=C2SC(C(=O)Nc3ccc(C)cc3C)CC(=O)N2C)cc1 (stereo not drawn)	113	x	-8	x
O=C(Cn1nc2c3c(cccc3c1=O)-c1ccccc1-2)c1ccccc1	104	101	-42	86
O=C(CCC1CCCCC1)Nc1ccc(O)cc1	104	121	-8	97
CCCc1cc(=O)[nH]c(Nc2ccccc2O)n1	159	107	20	82
CCN(CC)S(=O)(=O)c1ccc(NC(=O)c2cccc3c2C(=O)N(CCOC)C3)cc1	95	114	-1	94
CCOC(=O)c1c(C)c(S(=O)(=O)N2CCN(c3ncccn3)CC2)c(C)n1C	99	x	-12	x
COc1ccc(C2=NOC(C(=O)N3CC4(C)CC3CC(C)(C)C4)C2)cc1OC (stereo not drawn)	102	91	x	88
Fc1ccc(-c2nnc3n2N=C2CCCCC2S3)cc1 (stereo not drawn)	x	81	-42	92
COc1ccc(COCC(O)CN2CCCC(C(F)(F)F)C2)cc1 (stereo not drawn)	x	103	-28	95
C/C=C1\CC(C)(CC)C(C#N)(C#N)C(N)=C1C#N (stereo not drawn)	x	68	-12	92
O=C(CCSCCc1ccccn1)Nc1cc(F)ccc1F	102	110	x	80
O=C(Cn1c(=O)n(Cc2ccc(Cl)cc2)c(=O)c2nccnc21)Nc1ccc(Cl)cc1	114	x	0	x

Entries of single compounds from above.
`C/C=C1\CC(C)(CC)C(C#N)(C#N)C(N)=C1C#N` (stereo not drawn) reads GIV-Gai inh: x; Sa growth 42C: 68; HCMV UL50-53 inh: -12; Sa growth 42C second temp: 92
`O=C(CCSCCc1ccccn1)Nc1cc(F)ccc1F` reads GIV-Gai inh: 102; Sa growth 42C: 110; HCMV UL50-53 inh: x; Sa growth 42C second temp: 80

Further entries.
smiles	GIV-Gai inh	Sa growth 42C	HCMV UL50-53 inh	Sa growth 42C second temp
COc1ccc(-n2nc(C(=O)NCCC3=CCCCC3)c3c4ccccc4n(C)c3c2=O)cc1Cl	103	x	-14	x
Cc1ccc(OCc2cc(=O)n3c(-c4ccccc4)csc3n2)cc1	107	89	-28	75
N#CC(C#N)=CN1CCCCC1	104	92	-52	88
O=C(CCc1nc2sc3c(c2c(=O)[nH]1)CCCCC3)NCCN1CCOCC1	104	x	-28	x
Cc1[nH]ncc1CNC(=O)c1ccc(NC(=O)C2=CSCCO2)cc1	103	91	-52	86
O=C(c1ccccc1)N1CCc2cc(CNS(=O)(=O)c3ccc(Cl)s3)ccc21	102	107	x	85
CC(C)(C)OC(=O)N1CCC(c2c(C(=O)NCc3ccccn3)cnn2-c2ccccc2Cl)CC1	111	83	x	94
COc1ccc(C(=O)CS(=O)(=O)c2ccc3c(c2)OCCO3)cc1OC	x	76	-23	87
CCC(=O)n1c2c(c3ccccc31)Nc1ccccc1N2	102	108	-57	84
CN(Cc1ccccc1)C(=O)c1ccc(CS(=O)(=O)Cc2ccc(Cl)cc2)o1	107	105	3	83
